CSC inhib: cancer stem cell inhibition | cancer stem cell-like cells viability, luminescence | inhibition, % at 7.5 µM | hit rate 1.1% among 300,000;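 active = mean at 75% or more and at least half the replicates too; inconclusive = mean and replicates disagree; tested in HMLE shEcad cells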;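 also: 0% = median of negative and 100% = median of positive control wells; the first replicate is given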
Yeast UUG start: alters start codon recognition fidelity in yeast; activity score, % at 18.7 µM; hit rate 0.13% among 350,000; S. cerevisiae UUG-firefly luciferase reporter, luminescence/redox ratio;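 active = replicate mean at a twofold rise or more, about +100% in these data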;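 also: firefly luciferase made from a UUG start codon reports start codon fidelity; reporter light over untreated wells divided by growth signal over untreated wells; some hits fall short of that in this replicate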
PABP polyA inh: blocks human PABP binding to poly(A) RNA; inhibition, % at 35 µM; AID 2014; P11940; hit rate 1% among 290,000; fluorescence polarization;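 active = 50% or more with normal probe brightness, or confirmed in later tests; inconclusive = above 50% with abnormal brightness, or retests that disagree; inactive = below 50% or failed in later tests; about a fifth of its hits are not listed in these tables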;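 also: calls also rest on retests at 20 µM and on dose response follow-up; controls were probe without protein and protein plus probe with vehicle; some compounds called inactive have numbers as strong as hits; many hits fall short of the cut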
Target sequence (P11940 whole entry, looked up): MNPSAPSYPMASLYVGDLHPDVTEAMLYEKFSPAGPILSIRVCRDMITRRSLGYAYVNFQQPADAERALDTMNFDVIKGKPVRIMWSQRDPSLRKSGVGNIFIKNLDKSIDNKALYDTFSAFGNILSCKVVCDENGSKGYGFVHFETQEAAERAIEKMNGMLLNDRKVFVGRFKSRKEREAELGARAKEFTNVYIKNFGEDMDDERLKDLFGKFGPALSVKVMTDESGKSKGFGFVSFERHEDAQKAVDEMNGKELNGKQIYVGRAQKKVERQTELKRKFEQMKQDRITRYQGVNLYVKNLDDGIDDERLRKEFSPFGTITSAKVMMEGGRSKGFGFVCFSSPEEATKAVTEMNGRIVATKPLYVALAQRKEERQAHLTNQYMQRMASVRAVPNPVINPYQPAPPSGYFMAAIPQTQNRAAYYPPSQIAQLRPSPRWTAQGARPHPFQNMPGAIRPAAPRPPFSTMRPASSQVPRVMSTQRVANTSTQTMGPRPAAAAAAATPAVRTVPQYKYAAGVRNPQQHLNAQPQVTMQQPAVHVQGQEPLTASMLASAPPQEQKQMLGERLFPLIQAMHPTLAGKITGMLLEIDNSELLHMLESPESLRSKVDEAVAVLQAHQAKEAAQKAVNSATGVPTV
MT1-MMP act inh: MT1-MMP (human) activation inhibition. P50281. HT1080 RFP-PRO-GFP cells, GFP/RFP ratio fluorescence, overnight; percent of plate control window, DMSO zero. GFP/RFP ratio change, % at 20 µM. hit rate 0.061% among 360,000;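 active = GFP/RFP ratio change of at least 30% with cell ATP level not reduced by more than half and red fluorescence within 50% of control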; also: strong numbers were not always called active
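Compound: 20 µM single dose, 1% DMSO / System: HT1080 RFP-PRO-GFP cells / Controls: DMSO and RFP-L50D-GFP cell wells / Read-out basis: GFP/RFP fluorescence ratio / Schedule: overnight compound exposure at 37 °C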
eIF4H FP inh: inhibitors of RNA binding by human eIF4H; Q15056; eIF4H fluorescence polarization binding assay; inhibition, % at 35 µM; hit rate 0.94% among 290,000; AID 2012;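 active = 50% or more with normal probe brightness, or confirmed in later tests; inconclusive = above 50% with abnormal brightness, or retests that disagree; inactive = below 50% or failed in later tests; about a fifth of its hits are not listed in these tables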;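 also: calls also rest on retests at 20 µM and on dose response follow-up; 0% = protein and probe with vehicle and 100% = probe without protein; strong numbers were not always called active; many hits fall short of the cut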
Rce1 inhib: blocks yeast Ras-converting enzyme. Q03530. hit rate 0.27% among 290,000. yeast membranes, quenched prenylated peptide cleavage fluorescence. calls only;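 active = fall in fluorescence gain of 50% or more versus controls, with final raw signal at or below 3038400; inconclusive = same 50% fall but final raw signal above 3038400; inactive = fall in fluorescence gain under 50%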;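 also: plate controls were neutral control wells for no effect and wells lacking membranes for full effect; tested at 10 µM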
Env fusion inh: HIV envelope-mediated fusion inhibition; inhibition, % at 12.3 µM; HeLa-JRFL Env/CEM21 cell fusion, luciferase; hit rate 1.1% among 360,000;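 active = mean replicate inhibition score of at least 50 and every replicate individually at or above 50; inconclusive = only one of the two criteria met; inactive = mean below 50 and not all replicates reaching 50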;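 also: 0% = plate neutral controls and 100% = maraviroc near 300 nM; one replicate is shown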
eIF4H FP inh retest: second read-out of eIF4H FP inh, no call of its own (marks repeat the call); inhibition, %; compound at 20 µM; confirmation average;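 mean of two retest wells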
PABP polyA inh retest: further read-out of PABP polyA inh, marked with its call; inhibition, %; compound at 20 µM; confirmation repeats;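 mean of two retest wells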
MT1-MMP act inh RFP: also measured in MT1-MMP act inh; calls as there; RFP signal change, %; measured here: RFP expression control read;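 0 = vehicle wells; hits needed this value within 50% of zero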
An asterisk follows results filed as active; i = inactive; u = inconclusive; x = no result given; + = active, no number. The list is partial; rates above refer to the full screens.

SMILES	CSC inhib	Yeast UUG start	PABP polyA inh	MT1-MMP act inh	MT1-MMP act inh RFP	eIF4H FP inh	Rce1 inhib	Env fusion inh	others
CC(C)c1ccc(N2C(=O)CC(Sc3ncccn3)C2=O)cc1 (configuration not stated)	1	-2	-3	1	3	-14	i	0
O=C(COc1ccccc1Br)N1CCN(C(=O)c2cccs2)CC1	-3	-19	x	0	-1	x	x	x
O=C(NCCC1=CCCCC1)c1cc2c(s1)CS(=O)(=O)C2	-1	-3	9	-2	0	-3	i	-29
c1ccc(OCc2nn3c(-c4ccco4)nnc3s2)cc1	-9	20	7	-4	-2	7	i	-55
O=C(Nc1cc(C(F)(F)F)ccc1N1CCOCC1)c1n[nH]c(=O)c2ccccc12	0	-10	3	3	1	6	i	-28
CC(NC(=O)COc1ccc([N+](=O)[O-])cc1)c1ccccc1 (configuration not stated)	2	x	-8	-1	1	-6	i	1
Cc1cc(NC(=O)c2n[nH]c(=O)c3ccccc23)ccc1Br	-15	x	7	x	x	7	i	-7
COc1cc(COCC(O)CN2C(C)CCCC2C)cc(OC)c1OC (configuration not stated)	-6	-10	-7	-3	-3	-11	i	5
CCCCNCCOCCSc1ccc(Cl)cc1	16	-3	-13	-1	1	6	i	6
CC(=O)c1ccc(C(=O)N2CCc3c([nH]c4ccccc34)C2c2ccccn2)s1 (configuration not stated)	-4	1	-3	-11	-1	0	i	2
COCCNc1ncnc2c1ncn2[C@H]1CN(Cc2ccc3c(c2)OCO3)C[C@@H](CO)O1	x	-11	x	0	-1	x	x	6
Cc1ccccc1Cn1cnc2c([N+](=O)[O-])c(C)c(C)cc21	2	0	-12	-3	-3	-14	i	-6
Cn1c(=O)cc(SCC(=O)NCCC2=CCCCC2)c2ccc(Cl)cc21	-6	x	-11	4	2	-5	i	x
CC1CCN(C(=O)Cn2cc([N+](=O)[O-])ccc2=O)c2ccccc2S1 (configuration not stated)	-18	-4	x	2	-1	x	x	43
Cc1cc(C(=O)CN2C(=O)c3ccccc3S2(=O)=O)c(C)n1C(C)C	-6	-13	x	0	3	x	x	91*
CC(C)CCN1CCN(C2CCN(c3ccc4c(c3)OCO4)CC2)CC1CCO (configuration not stated)	50	-22	-2	-1	0	-1	i	-12
O=C(NCCCCc1ccccc1)Nc1ccc(F)cc1	5	-13	-2	2	1	-10	i	4
O=C(Nc1ccc(F)cc1)c1cccnc1N1CCCCC1	-6	x	-4	-7	-1	-10	i	x
Cc1ccc(-c2n[nH]c(=S)n2/N=C/c2cccs2)cc1	8	-15	-7	-4	-2	2	i	17
O=C(NC(=S)N1CCN(c2ccc(F)cc2)CC1)C12CC3CC(CC(C3)C1)C2	7	x	-4	4	-2	-7	i	14
C=CCNC(=S)NNC(=O)COc1ccc(Cl)cc1Cl	47	x	0	7	5	2	i	9
Cc1ccc(C)c(C(=O)C(C)OC(=O)CN2C(=O)NC3(CC(C)CC(C)(C)C3)C2=O)c1 (configuration not stated)	-3	-17	-6	3	-2	-4	x	-12
COc1ccccc1N1CCN(Cc2nc3ccccc3[nH]2)CC1	-15	-17	14	-2	2	-9	i	-2
CC(C)[C@H](NC(=O)C1CC(=O)N(c2ccc(F)cc2)C1)C(=O)N1CCCCC1 (some centres not stated)	-13	-19	12	-1	1	-3	i	1
CCOc1ccc(NC(=S)N(CCN2CCOCC2)Cc2ccc3c(c2)CCCN3CC)cc1	6	-22	4	-3	-5	-4	i	12
Next part
SMILES	CSC inhib	Yeast UUG start	PABP polyA inh	MT1-MMP act inh	MT1-MMP act inh RFP	eIF4H FP inh	Rce1 inhib	Env fusion inh	others
CCCCn1c(SCC(=O)c2ccc3c(c2)OCCO3)nnc1-c1ccoc1C	-12	-24	-3	-2	0	-10	i	x
COC(=O)c1ccc(/C=N/n2c(C)nc3ccccc3c2=O)cc1	-9	x	5	4	2	8	i	-17
CC(C)(C)OC(=O)C[C@@H]1C/C=C\C[C@H](CC(=O)N[C@@H](CO)Cc2ccccc2)C(=O)N[C@H](C(C)(C)C)COC1=O	-3	-7	x	1	1	x	x	-13
COc1ccc(N(CC(=O)N/N=C/c2ccccc2OC)S(=O)(=O)c2ccccc2)cc1	-6	-13	-8	1	4	-8	i	20
C=CCNC(=S)NNC(=O)c1ccc(Br)o1	-22	x	7	0	3	2	i	x
CN1CCc2c(sc(NC(=O)C3CCCCC3)c2C(N)=O)C1	-8	-14	7	1	8	0	i	-13
Cc1ccc(-n2c(SCC(=O)N3CCOCC3)nnc2-c2cccnc2)cc1C	3	6	1	-11	1	-4	i	x
Cc1ccccc1Nc1nc(N)nc(CSc2ccc(F)cc2)n1	-5	-31	4	8	-4	5	i	-67
CC(C)CC1C(=O)N(Cc2cn(Cc3ccco3)nn2)CCS(=O)(=O)N1Cc1ccc(-c2ccc(Cl)c(Cl)c2)cc1 (configuration not stated)	x	-5	x	-11	2	x	x	-2
Cc1ccccc1CN1CCN(C(=O)c2ccco2)CC1	-2	-7	11	0	3	-1	i	-12
CC1=C(C#N)C(C)(C)C(C#N)=C(C)N1	x	-6	x	-4	-3	x	x	4
CCCc1nc2ccccc2c(=O)n1CCc1ccccc1	-7	-3	6	0	-4	-1	i	14
COc1ccc(C(=O)CCN2CCN(c3ccccc3F)CC2)cc1	u	x	6	1	-3	6	i	10
CC(NC(=O)c1ccccc1NC(=O)CN1CCc2ccccc2C1)c1ccccc1 (configuration not stated)	26	-19	6	-4	-3	-3	i	69*
COc1ccc(OC)c(S(=O)(=O)N(C)CC(=O)N2CCOCC2)c1	-17	-17	-7	-1	4	-11	i	-6
CCCOc1ccc(N2CC(C(=O)Nc3ccccn3)CC2=O)cc1 (configuration not stated)	10	-19	-2	0	2	0	i	x
COc1cc(S(=O)(=O)Nc2ccc(C)cc2)ccc1NC(=O)c1ccncc1	-5	x	119	2	1	3	i	4	eIF4H FP inh retest=-17;PABP polyA inh retest=42
COc1ccc(NS(=O)(=O)c2ccc3oc(=O)c4[nH]c(=O)c(=O)n(C)c4c3c2)cc1	-3	-15	6	4	6	1	+	2
CCOC(=O)c1nnc(-c2ccccc2)nc1Sc1c(Cl)cccc1Cl	-15	-4	-4	-1	-7	-4	i	x
OCCOCCn1c(C(CO)Nc2nc(-c3ccccc3Br)cs2)nc2ccccc21 (configuration not stated)	-1	-30	x	-4	1	x	i	-1
Nc1ccnn1Cc1ccc(Br)s1	-13	0	-8	-2	-1	-4	i	-25
CCN(CC(=O)NCc1cccs1)C(=O)c1cc(S(=O)(=O)N2CCOCC2)ccc1C	-5	-16	13	-3	-2	1	i	10
CCOC(=O)C1CN(S(=O)(=O)c2ccc(C)cc2)CCN1S(=O)(=O)c1ccc(C)cc1 (configuration not stated)	0	10	-4	0	-6	9	i	x
C#CCOCCOCCOCCNc1nc(N2CCN(C(=O)[C@H](Cc3cc4ccccc4[nH]3)n3cc([C@@H](N)C(C)CC)nn3)CC2)nc(N2CCN(C(=O)[C@H](CCCCN)n3cc([C@@H](N)CO)nn3)CC2)n1 (some centres not stated)	-4	x	20	x	x	19	i	x
O=C1COc2ccccc2N1Cc1ccccc1Cl	x	0	-3	4	5	3	i	-47
Carrying on:
SMILES	CSC inhib	Yeast UUG start	PABP polyA inh	MT1-MMP act inh	MT1-MMP act inh RFP	eIF4H FP inh	Rce1 inhib	Env fusion inh	others
COc1cc(CNc2ccc(S(N)(=O)=O)cc2)ccc1OCc1ccccc1F	x	4	x	-6	-25	x	x	-4
C=CCNc1nc(Nc2ccccc2F)nc(OCC)n1	-7	x	0	-2	-4	1	i	-12
Clc1cccc(Nc2nc(-c3ccncc3)nc3ccccc23)c1	56	x	-32	1	-7	-39	i	20
COc1ccc(-c2noc3c2-c2nc(-c4c(F)cccc4F)sc2CC3)cc1	30	-36	2	-1	0	-4	i	-13
COc1ccc(NC(=O)CCC(=O)c2cc(C)sc2C)cc1	x	2	x	-1	3	x	x	-26
Cn1nnnc1SCCNCc1cccc2ccccc12	-8	-18	6	3	3	9	i	x
CCOC(=O)C1CCCc2c1[nH]c1c(C(=O)O)cccc21 (configuration not stated)	-5	-10	7	-1	-3	0	i	x
C=C1C(O)C[C@H]2C(=C)CCC3[C@H](OC(=O)[C@]3(O)CO)[C@@H]12 (some centres not stated)	-16	-18	-2	-1	5	3	i	22
N#C/C(=C\Nc1ccc2cn[nH]c2c1)c1nc(-c2ccccc2)cs1	x	4	u	0	3	6	i	3
O=C(NCc1cc(C(F)(F)F)cc(C(F)(F)F)c1)C1CC(c2cccc([N+](=O)[O-])c2)=NO1 (configuration not stated)	-1	-16	4	7	-1	3	i	19

Filtered by structure, the entries above with a thiophene ring, fused or not (8)
SMILES	CSC inhib	Yeast UUG start	PABP polyA inh	MT1-MMP act inh	MT1-MMP act inh RFP	eIF4H FP inh	Rce1 inhib	Env fusion inh	others
O=C(COc1ccccc1Br)N1CCN(C(=O)c2cccs2)CC1	-3	-19	x	0	-1	x	x	x
O=C(NCCC1=CCCCC1)c1cc2c(s1)CS(=O)(=O)C2	-1	-3	9	-2	0	-3	i	-29
CC(=O)c1ccc(C(=O)N2CCc3c([nH]c4ccccc34)C2c2ccccn2)s1 (configuration not stated)	-4	1	-3	-11	-1	0	i	2
Cc1ccc(-c2n[nH]c(=S)n2/N=C/c2cccs2)cc1	8	-15	-7	-4	-2	2	i	17
CN1CCc2c(sc(NC(=O)C3CCCCC3)c2C(N)=O)C1	-8	-14	7	1	8	0	i	-13
Nc1ccnn1Cc1ccc(Br)s1	-13	0	-8	-2	-1	-4	i	-25
CCN(CC(=O)NCc1cccs1)C(=O)c1cc(S(=O)(=O)N2CCOCC2)ccc1C	-5	-16	13	-3	-2	1	i	10
COc1ccc(NC(=O)CCC(=O)c2cc(C)sc2C)cc1	x	2	x	-1	3	x	x	-26

High-throughput results: PubChem BioAssay, several laboratories
